Source: PubChem
Sfp PPTase inh: blocks B. subtilis Sfp PPTase activity. Biochemical Sfp PPTase activity, qHTS. Potency, µM, for inactives: max response, negative = inhibition, most hits filed as inhibitors. Q9F4F7. AID 1490. 310,000 tested, 3.5% active; active means well fitted inhibition curve with a large enough effect; inconclusive means small, poorly fitted or top-dose-only effect, or another doubt; inactive means no such curve, though single readings can be large or run the other way;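 further: the enzyme is Sfp with the accession as filed and its product quenches rhodamine fluorescence; potency means the concentration at half of the fitted maximal effect; 0% = enzyme reaction without inhibitor and -100% = no enzyme wells; top concentration of the series not given in the record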
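Buffer: 50 mM Hepes-Na pH 7.6, 10 mM MgCl2, 0.01% Nonidet P-40, 0.01% BSA. Enzyme 15 nM, pre-exposed to compound 15 min; substrates then added and fluorescence change tracked over 30 min.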
D2 potentiator: positive allosteric modulators of human D2 dopamine receptor. P14416. DiscoveRx D2 beta-arrestin cells, luminescence, 90 min; 100% = 57 uM dopamine signal. potentiation, % (concentration not given with the values). 360,000 tested, 0.23% active; active = potentiation of 50% or more; inconclusive = 30% to 50%; inactive = 30% or less;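 further: compound concentration not given in the record; tested on top of an EC20 dose of dopamine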
Target sequence (P14416 whole entry, looked up): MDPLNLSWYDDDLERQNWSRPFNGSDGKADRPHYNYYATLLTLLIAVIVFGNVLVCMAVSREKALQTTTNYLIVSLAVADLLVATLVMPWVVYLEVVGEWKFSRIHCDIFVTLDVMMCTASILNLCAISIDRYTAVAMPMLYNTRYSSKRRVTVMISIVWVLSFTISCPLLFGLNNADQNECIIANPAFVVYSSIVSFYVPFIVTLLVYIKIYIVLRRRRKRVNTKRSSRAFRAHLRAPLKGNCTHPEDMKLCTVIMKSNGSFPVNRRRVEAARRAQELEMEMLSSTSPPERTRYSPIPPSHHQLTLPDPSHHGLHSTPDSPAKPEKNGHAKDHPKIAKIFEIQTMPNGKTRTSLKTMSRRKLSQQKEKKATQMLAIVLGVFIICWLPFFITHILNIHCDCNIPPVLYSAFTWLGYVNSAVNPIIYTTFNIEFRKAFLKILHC
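PathHunter D2 cells, attached overnight at 37 deg C, received compound in DMSO plus dopamine at EC20 (50 nM final) for 90 min at 37 deg C. Beta-arrestin recruitment was read as luminescence after 1 h with detection reagent at ambient temperature.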
D2 agonist: activates the human D2 dopamine receptor; DiscoveRx PathHunter D2 beta-arrestin, luminescence, 90 min; 100% = 57 uM dopamine signal; 360,000 tested, 0.084% active; P14416; activation, % (no concentration beside the values); in the data active = activation above about 40%; inconclusive = about 15% to 40%; inactive = below about 15%; further: compound concentration not given in the record; the text of the record calls up to 30% inactive
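Agonist mode: compounds alone added to overnight-plated D2 PathHunter cells for 90 min at 37 C, with 57 uM final dopamine (EC100) defining full response. Beta-arrestin recruitment detected by chemiluminescent reagent, read after 1 h at ambient temperature.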
PINK1 expr mod: PINK1 expression modulation | PINK1 immunofluorescence, high-content cytometry, 24 h | Potency, µM (doses to about 76.6 µM), for the others: at the top dose activation (PINK1 increase), most hits filed as activators | 410,000 tested, 0.2% active; active = well fitted activation curve with a large enough effect; inconclusive = small, poorly fitted or top-dose-only effect; inactive = flat fitted curve, though single readings scatter; cell line not stated here;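 further: potency means the concentration at half of the fitted maximal effect; % of control where 0% means no effect; nearly all actives have a fitted effect of over 65% in size; a mitochondrial uncoupler was the plate control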
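Cells are seeded, rested 12 hours, then given compound at five concentrations or DMSO for 24 hours. After fixation, blocking and antibody staining, PINK1 amount and mitochondrial localization are scored; CCCP serves as control.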
CtBP-E1A inh: CtBP/E1A binding inhibition. AlphaScreen GST-E1A/His-CtBP binding, 1536-well; hits give low values; control for the full effect not named in the record. activity change, % (no concentration beside the values). 340,000 tested, 0.49% active. AID 651724; in the data active means activity change below about -65%; inconclusive means about -30% to -65%; inactive means above about -30%; further: on the % scale 0 is the no-effect control and ±100 the full control effect; compound concentration not given in the record
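Steps: dispense buffer (Tris pH 8.0, NaCl 300 mM, TCEP 1 mM, BSA, Tween 20); add 5X protein mix (GST-E1A, His-CtBP, 125 nM each); pin 23 nL compound; 2 h at 37 °C, dark; add 5X beads (50 ug/mL); 1 h; read.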
Six1-Eya2 blk: inhibitors of human Six1/Eya2 interaction | 360,000 tested, 0.56% active | activity change, % (concentration not given with the values) | AlphaScreen GST-Six1/His-Eya2 binding, biochemical; hits give low values; control for the full effect not named in the record | Q15475+O00167 | AID 651725; in the data active = activity change below about -65%; inconclusive = about -30% to -65%; inactive = above about -30%; further: on the % scale 0 is the no-effect control and ±100 the full control effect
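GST-Six1 + His-Eya2 (5X stock: 250/500 nM); Tris pH 8.0, 300 mM NaCl, 0.05% BSA, 0.02% Tween 20; GSH donor/Ni acceptor beads; 1 h 37 °C dark; AlphaScreen readout.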
TRPV1 potentiator: enhances activation of the human vanilloid receptor TRPV1; 320,000 tested, 0.02% active; potentiation, % at 8.33 µM; TRPV1-expressing cells, Fluo-8 calcium influx, capsaicin EC20 potentiation; host cell line not named in the record; control for the full effect not named in the record; AID 540277; active means potentiation above 80%; inconclusive means 30% to 80%; inactive means below 30%; further: 0% is about no effect
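Cells expressing TRPV1 were dye-loaded with Fluo-8 and read kinetically: 10 s baseline, 3 min after compound (agonist portion), then 2 min after EC20 capsaicin (allosteric enhancer portion). Calcium-bound dye fluorescence at 480/520 nm.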
Active calls of the source: *; ? = inconclusive; · = no result given; [ ] = remark or other dose.

SMILES	Sfp PPTase inh	D2 potentiator	D2 agonist	PINK1 expr mod	CtBP-E1A inh	Six1-Eya2 blk	TRPV1 potentiator
Cn1c(SCC(=O)NC2(C#N)CCCCC2)nnc1-c1cccnc1	19.5%	-6.6	0.3	2.5%	-0.1	0.1	10.1
CCN1CCN(CCNC(=O)c2cn(C(C)c3ccccc3F)nn2)CC1 (centres undefined)	3.3%	-12.5	1.2	-0.6%	6.3	1.3	-4.8
Cc1cc(C)nc(Sc2c(C)nn(-c3ccccc3)c2C)n1	9.4%	-1.6	-3.4	-1.2%	-0.8	-1.4	-1.2
Cc1ccc(C(=O)c2oc3nc(C)cc(C)c3c2N)cc1	-2.8%	-5.4	-3.3	2.2%[38.3 µM]	-15.0	-8.8	-9.3
COc1ccc2c3n([n+]([O-])c2c1)CCN=C3c1cc(Cl)c(N)c(Cl)c1	·	-8.6	0.9	0.1%	-4.9	-6.4	?
COc1ccc(NC(=O)C2COc3ccccc3O2)cc1 (centres undefined)	26.7%	-6.6	-2.0	2.3%	3.0	-3.6	4.0
Cc1ccnc(NC(=O)c2cccs2)c1	4.9%	-6.0	-3.3	0.5%	0.0	18.4	10.3
Cc1ccc(S(=O)(=O)N2CCCC2C(=O)NCc2ccc3c(c2)OCO3)cc1 (centres undefined)	-3.0%	-3.6	-3.3	-1.5%	1.0	6.1	-2.2
Cc1ccccc1-n1nc2c(c1NC(=O)COc1ccc(Cl)cc1)CS(=O)C2 (centres undefined)	-7.7%	2.0	3.7	0.6%	8.6	2.7	·
O=C(Nc1c2c(nn1-c1ccccc1)CS(=O)(=O)C2)c1cccs1	-1.0%	-14.6	-5.1	1.2%	0.0	10.4	11.1
CCOC(=O)C1CCN(Cc2cccc(OCc3ccccc3)c2)CC1	-12.6%	22.2	48.4*	16.2%	·	1.4	-5.6
Cc1nn(C)cc1N1C(=O)c2cccc3c(N)ccc(c23)C1=O	3.4%	1.5	3.6	1.1%	-0.1	4.0	·
O=C(CCNc1n[nH]c(=O)[nH]c1=O)N/N=C\c1ccc(Br)cc1	10.9%	-4.1	-2.0	-1.6%	-15.5	-0.1	18.2
CCCC(=O)Nc1cc2c3c(c1)C(C)C(=O)N3CCC2 (centres undefined)	6.0%	1.2	5.7	-0.6%	·	-1.1	-4.6
COc1ccc(NC(=O)NN2CCN(C)CC2)c(OC)c1	16.4%	-2.1	-1.3	1.7%	-2.5	-1.3	18.1
COCCn1c(=O)[nH]c2cc(C(=O)N3CCN(Cc4ccc5c(c4)OCO5)CC3)ccc2c1=O	·	10.0	6.0	2.1%	3.5	5.5	·
CN(C)S(=O)(=O)N1CCc2ccccc21	6.9%	-1.4	-4.1	-0.7%	7.6	4.8	3.4
Brc1ccc(-c2nnc3n2C2(CCCC2)Cc2ccccc2-3)o1	-0.9%	-12.1	-0.3	-0.2%	-1.6	-0.4	-16.7
CCOC(=O)C1CN(S(=O)(=O)c2ccc(C)cc2)c2cc(S(=O)(=O)CC)ccc2O1 (centres undefined)	-1.6%	-4.9	-3.2	-3.7%	4.5	0.0	-31.6
CC(=O)c1c(C)[nH]c(C(=O)CN2C(=O)NC(C)(c3ccc4c(c3)OCCO4)C2=O)c1C (centres undefined)	·	-16.1	-1.1	10.5%	-0.4	-10.0	5.1
COc1cccc(C2C3=C(CC(C)(C)CC3=O)OC(N)=C2[N+](=O)[O-])c1 (centres undefined)	4.8%	-16.2	0.7	-5.1%	-6.1	2.2	5.8
O=C(CN1CCC(C(=O)c2ccc3c(c2)OCCO3)CC1)Nc1ccccc1C(F)(F)F	-1.4%	-5.2	5.2	0.4%	2.9	-2.6	12.3
CCOC(=O)C1=C(COC(=O)/C=C/c2cccc([N+](=O)[O-])c2)NC(=O)NC1C (centres undefined)	·	-24.0	-3.3	-0.5%	?	-11.8	?
Cn1ncc(Cl)c1C(=O)N1CCN(C23CC4CC(CC(C4)C2)C3)CC1	12.6%	-2.2	-4.3	-0.2%	-0.3	-6.5	-12.3
CC(=O)c1ccc(N2CCN(C(=S)Nc3cccc(Cl)c3)CC2)cc1	18.0%	-15.8	-0.2	14.4%	1.1	-1.5	0.6
O=C(Cc1cccs1)NCc1ccccc1Br	-8.7%	-3.4	2.7	-3.3%	-14.2	0.0	-33.7
Cc1ccc(S(=O)(=O)NCc2ccc(C(=O)NCCc3ccc(S(N)(=O)=O)cc3)cc2)cc1	-21.8%	7.4	-3.0	5.6%	7.0	-6.2	-3.2
CC(=O)Oc1ccc2oc(=O)c3c(c2c1)CCCN3C(=O)CN1CCOCC1	10.5%	-4.7	0.1	-1.8%	·	1.3	-11.2
COc1ccc2oc(C(=O)N3CCc4ccccc43)c(C)c2c1	-16.4%	-5.3	-4.9	0.4%	9.6	4.2	-2.6
O=C(Nc1ccc(Nc2ccccc2)cc1)c1ccc(Cl)cc1	·	-25.3	-5.4	13.6%	·	-8.3	·
CC(Sc1nnc(Cc2cccs2)n1C1CCCCC1)C(=O)N1CCc2ccccc21 (centres undefined)	8.2%	-41.8	-3.1	-2.8%	-4.1	-7.4	10.3
COc1ccc(Nc2oc(COc3ccc(Cl)cc3)nc2C#N)cc1	0.9%	17.1	2.4	2.4%	-4.7	-4.5	3.9
CCOc1ccc(NC(=O)CSc2nc(NS(=O)(=O)c3ccc(C)cc3)cc(=O)[nH]2)cc1	19.5%	-4.0	-1.7	0.3%	1.2	-15.5	5.8
COC(=O)c1ccc2nc(-c3ccco3)c(Cc3ccccc3C(F)(F)F)n2c1	·	·	·	4.5%	-13.8	3.2	·
O=C(Nc1ccc(CN2CCOCC2)cc1)c1cc2ccccc2o1	-4.8%	-8.0	-1.0	0.3%[38.3 µM]	5.0	-2.8	-2.8
CCN1CCN(S(=O)(=O)c2ccc(OC)c(NC(=O)c3ccccc3F)c2)CC1	·	-31.5	-5.3	7.8%	?	?	-9.0
CCS(=O)(=O)c1nc(S(=O)(=O)c2ccc(Cl)cc2)c(N2CCCC2)s1	2.8%	-8.3	-2.9	-1.1%	·	-1.3	4.8
CC(C)(C)NC(=O)C(=O)NN=C1CCCCCC1	11.4%	-5.5	-6.5	1.5%	-6.6	9.0	1.1
CCC(C)(C)C(=O)Nc1ncc(S(=O)(=O)c2ccc([N+](=O)[O-])cc2)s1	-6.1%	87.6*	7.0	1.8%	-23.6	-25.2	-12.6
CCN(CC(=O)Nc1cc(C)c(Cl)cc1OC)CC(=O)NC1CCS(=O)(=O)C1 (centres undefined)	8.9%	0.2	-0.3	-0.7%	2.8	4.6	18.0
COc1ccc(N2CC(C(=O)Nc3ccc(S(=O)(=O)Nc4nccs4)cc3)CC2=O)c(OC)c1 (centres undefined)	·	-0.4	-1.9	1.1%	·	-15.8	22.8
COc1ccc(C)cc1NC(=O)CSc1nnc(-c2cc3cccc(OC)c3o2)n1N	13.2%	-24.8	-5.8	2.4%	-2.1	-8.9	8.2
COc1cc(C=NNC(=O)Cn2nc(C)cc2C)ccc1OC(=O)C1CC1	·	1.3	4.6	1.0%	0.8	-2.3	·
CCCCCc1c(O)nc(SCCN(C)C)[nH]c1=O	7.2%	-5.5	-1.1	-0.2%	6.5	5.3	-5.3
Cc1cc(Sc2nccn2C)ncc1[N+](=O)[O-]	-12.9%	1.4	-4.0	2.8%	5.1	0.0	13.1
O=C(Nc1ccccc1)c1cccc(S(=O)(=O)N2CCCCC2)c1	15.5%	-11.6	-3.0	·	0.0	21.1	-21.0
O=[N+]([O-])c1cccnc1Oc1ccc(C2SCCS2)cc1	-0.7%	-10.4	-3.0	0.2%	·	-19.4	·
CCCC(=O)N1CCOCC1c1cc(C(=O)NCc2ccccc2)no1 (centres undefined)	·	-6.7	-5.3	-1.0%	9.2	8.6	·
CSC(=NCc1cccnc1)NS(=O)(=O)c1cccs1	16.5%	-24.5	-4.7	-0.6%	-1.0	-1.3	-4.1
COc1ccc(OCc2nnc(SCC(=O)Nc3ccccc3Cl)o2)cc1	19.5%	0.9	-1.7	1.6%	-7.1	-0.6	-9.7
COc1cc(C(=S)N2CCOCC2)cc(OC)c1OC(=O)c1cc([N+](=O)[O-])c(C)c([N+](=O)[O-])c1	4.3%	?	4.7	-1.2%	-2.2	-1.2	2.3
COc1cc(CNCCCN2CCOCC2)cc(Br)c1OCC(=O)N1CCCCC1	-23.9%	-5.5	-2.7	5.3%[38.3 µM]	2.6	-0.4	-3.2
CN(CCNC(=O)c1ccc(N2CCCC2=O)cc1)CCc1ccccc1	11.9%	-29.0	-0.1	0.1%	4.7	6.0	2.4
CC(C)(C)NC(=O)CN1CCN(C(=O)CCl)CC1	?	-9.3	-3.0	0.3%	2.2	1.9	?
CCOC(=O)C1(C)CCCN1C(=O)c1ccc(Cl)nc1 (centres undefined)	·	-4.9	-5.0	0.2%	6.7	7.7	·
COc1ccc(/C=C/C(=O)OCC(=O)Nc2nnc(-c3ccccc3)o2)c(OC)c1	·	-10.0	-1.1	0.4%	-5.2	-4.9	·
O=C1CC(Sc2ncn[nH]2)C(=O)N1c1ccccc1 (centres undefined)	56.2µM*	0.8	-1.2	1.9%	7.4	1.0	-6.2
NNC(=O)c1sc2cc(C(F)(F)F)cnc2c1-c1ccccn1	-14.0%	-3.9	4.2	0.1%	·	-4.2	3.5
CC(=O)Nc1c(NC(C)(C)C)c2ccccc2oc1=O	4.7%	0.1	-1.1	0.9%	4.1	7.4	28.3
C[N+](C)(C)CCNC(=O)c1c(O)c2c([nH]c1=O)CCCC2	-7.0%	-6.4	0.1	6.0%	-2.8	5.8	-0.7
CC(=O)N(CCc1ccccc1)Cc1cc2ccc(C)c(C)c2[nH]c1=O	2.2%	-28.5	-4.9	1.3%	2.3	7.8	4.5

Gathered by group, the compounds so far containing a cyano group
SMILES	Sfp PPTase inh	D2 potentiator	D2 agonist	PINK1 expr mod	CtBP-E1A inh	Six1-Eya2 blk	TRPV1 potentiator
Cn1c(SCC(=O)NC2(C#N)CCCCC2)nnc1-c1cccnc1	19.5%	-6.6	0.3	2.5%	-0.1	0.1	10.1
COc1ccc(Nc2oc(COc3ccc(Cl)cc3)nc2C#N)cc1	0.9%	17.1	2.4	2.4%	-4.7	-4.5	3.9
